VDR inh: Inhibitors of the vitamin D receptor (VDR): qHTS; Vitamin D3 receptor (Homo sapiens), P11473; VDR-SRC2-3 peptide fluorescence polarization, 2 h; Potency, µM, without a hit: max response, negative = inhibition, hits mostly inhibitors; 400,000 compounds, 0.93% hits; AID 504847, 2011; active = well fitted inhibition curve with a large enough effect; inconclusive = small, poorly fitted or top-dose-only effect, or another doubt; inactive = no such curve, though single readings can be large or run the other way; note: series mostly up to about 120 µM
Target sequence (P11473 whole entry, looked up): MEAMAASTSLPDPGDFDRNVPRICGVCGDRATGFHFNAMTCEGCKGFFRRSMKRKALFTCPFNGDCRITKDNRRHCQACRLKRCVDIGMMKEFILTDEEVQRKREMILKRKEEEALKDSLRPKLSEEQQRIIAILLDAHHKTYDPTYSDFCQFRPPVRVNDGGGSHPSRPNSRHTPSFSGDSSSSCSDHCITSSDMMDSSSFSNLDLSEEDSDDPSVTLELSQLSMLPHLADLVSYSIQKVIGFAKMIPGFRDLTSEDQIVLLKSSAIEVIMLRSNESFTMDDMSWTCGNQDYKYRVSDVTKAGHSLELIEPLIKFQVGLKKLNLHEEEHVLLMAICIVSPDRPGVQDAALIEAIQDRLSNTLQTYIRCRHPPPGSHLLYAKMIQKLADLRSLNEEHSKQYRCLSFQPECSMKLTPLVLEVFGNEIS
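Measured by FP: displacement of SRC2-3 coactivator peptide from VDR by library compounds, following a two-hour ambient incubation.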
* marks the source's active call; other numbers are inactive results; ? = inconclusive; & = joins results of further samples; [ ] = dose if it differs, or a comment. % is set by controls: 0 for no effect and ±100 for the full control effect; potency is the fitted concentration of half-maximal effect. The list is partial; count on the stated rates, not on these rows.

SMILES	VDR inh
CCC(C(=O)OCC(=O)N1CCN(S(=O)(=O)c2ccc(C)cc2C)CC1)c1ccccc1 (centres undefined)	2%
O=C(N/N=C/C=C/c1ccccc1)c1cccs1	-20%
CCOc1ccc(/C=C/C(=O)CCC(=O)O)cc1	15%
Cc1ccc(NNc2c(C)nc3ccccc3nc2=O)cc1	-2%
Cc1ccc(/C=N/NC(=O)C2(C)CC2(Br)Br)cc1 (centres undefined)	34%
CC(C)CCn1cnc2c(c1=O)c1nc3ccccc3nc1n2Cc1ccc2c(c1)OCO2	-6%
O=C(c1cn(CCOc2ccc(Cl)cc2)c2ccccc12)C1CCCCC1	-3%
CC1(C(=O)Nc2ccc3c(c2)OCCO3)CC1(Cl)Cl (centres undefined)	7%
CC(C)c1ccc(-c2noc(C3CCCN(S(C)(=O)=O)C3)n2)cc1 (centres undefined)	-5%
Cc1c(NC(=O)c2ccc3c(c2)OCO3)c(=O)n(-c2ccccc2)n1C	-9%
CC(OC(=O)CNC(=O)c1ccccc1F)C(=O)Nc1nc(-c2ccccc2)cs1 (centres undefined)	-9%
CCN(CC)Cc1cc(C(C)=O)ccc1OCC(C)C	-7%
COc1cc(/C=C2/C(=O)NN(c3cccc(C)c3)C2=O)cc([N+](=O)[O-])c1O	-27%
CSc1nc(SC(C)C(=O)O)c2c3c(sc2n1)COC(C)(C)C3 (centres undefined)	-11%
Cn1c(N)c(N=Cc2ccccc2)c(=O)n(C)c1=O	22%
O=C(O)c1ccccc1-c1c2cc(Br)c(=O)c(Br)c-2oc2c(Br)c(O)c(Br)cc12	35µM*
CC(C)C(C(=O)Nc1ccncc1)c1ccc(Cl)cc1 (centres undefined)	-15%
Cc1ccc(/C=C/C(=O)N2CCN(c3ccc(F)cc3)CC2)o1	-11%
COc1ccc(N2CCN(S(=O)(=O)c3ccc(Cl)c(C(F)(F)F)c3)CC2)cc1	-1%
CCOC(=O)C1CN(c2cc3c(cc2F)c(=O)c(C(=O)O)cn3CC)OC1C(=O)OCC (centres undefined)	2%
COc1ccc(NS(=O)(=O)c2ccc(NC(=S)NC(=O)c3ccc(Br)cc3)cc2)nn1	-21%
O=C(Cn1cc(COc2ccccc2C(F)(F)F)nn1)c1ccc(O)cc1	?
Cc1cnc(NC(=O)CSc2ncc(-c3ccccc3)n2Cc2ccco2)s1	5%
CCOC(=O)C1CCCN(C2CC(=O)N(c3ccc(NC(C)=O)cc3)C2=O)C1 (centres undefined)	10%
CC(=O)NS(=O)(=O)c1ccc(NC(=S)Nc2ccccc2)cc1	-9%
O=S(=O)(NCCSCc1ccc(Cl)c(Cl)c1)c1ccc2c(c1)OCCO2	4%
O=C(NCc1ccccn1)c1ccc(Cn2c(=S)[nH]c3ccccc3c2=O)cc1	-4%
Cc1noc(C)c1-c1cc(N2CCN(C)CC2)ncn1	6%
CC1CC(=O)N(CC(=O)NCc2ccc(F)cc2)c2ccccc2S1(=O)=O (centres undefined)	-8%
CC1CCC(NC(=O)c2cnccn2)CC1 (centres undefined)	8%
CCNC(=O)COC(=O)CCNC(=O)c1ccc(Cl)cc1	31%[activator]
Cc1cccc(OCC(=O)Nc2ccccc2C(=O)OCc2cc(=O)n3nc(C)sc3n2)c1	1%
CCOC(=O)[C@@H]1[C@H]2COc3ccccc3[C@H]2N2C(=O)N(c3cccc(Cl)c3)C(=O)[C@@]12C	-1%
COc1ccc(/C=C(/NC(=O)c2ccccc2)C(=O)N/N=C/c2ccc3c(c2)OCO3)cc1OC	-17%
CCCn1nc(NC(=O)c2ccncc2)c2cc3ccccc3nc21	9%
O=C(O)/C(=C\c1ccc(Cl)c([N+](=O)[O-])c1)c1ccc(S(=O)(=O)N2CCCCC2)s1	-27%
CS(=O)(=O)c1ccc(NCCc2ccccn2)c([N+](=O)[O-])c1	-5%
COCCN(C(=O)COC(=O)/C=C/c1ccc2c(c1)OCO2)c1c(N)n(Cc2ccccc2)c(=O)[nH]c1=O	-17%
Cc1[nH]n(C(C)(C)C)c(=O)c1Sc1ccc(Cl)cc1	-18%
COc1ccc(C2CC(=O)c3c([nH]c(C(=O)OCc4ccccc4)c3C)C2)cc1OC (centres undefined)	-18%

Part of the list above, with each value named.
COCCN(C(=O)COC(=O)/C=C/c1ccc2c(c1)OCO2)c1c(N)n(Cc2ccccc2)c(=O)[nH]c1=O
  VDR inh = -17%
Cc1[nH]n(C(C)(C)C)c(=O)c1Sc1ccc(Cl)cc1
  VDR inh = -18%

(list continues)
SMILES	VDR inh
COc1ccc(C)cc1NC(C)C(=O)NC(=O)NC1CCCCC1 (centres undefined)	-16%
O=C(Nc1nc2c(F)cc(F)cc2s1)c1ccc(S(=O)(=O)N2CCc3ccccc32)cc1	4%
CC(=O)Nc1c(C)ccc(CNC(=O)COc2cc(C)ccc2C)c1C	-18%
Cc1ccc2onc(CC(=O)N3CCN(c4cccc(Cl)c4)CC3)c2c1	1%
CCOc1ccc(OCC)c(NC(=O)C2CCN(S(=O)(=O)c3c(C)noc3C)CC2)c1	-8%
CC1=C/C(=C\C=C(C#N)C#N)N(C)c2ccccc21	-4%
CCc1c(C)c2c(C)nn(-c3ccccc3)c2[nH]c1=O	-1%
COc1ccc(C)cc1NS(=O)(=O)c1ccc(NC(=O)CN(c2cc([N+](=O)[O-])ccc2C)S(C)(=O)=O)cc1	-6%
CCOC(=O)[C@H]1[C@H]2COc3ccc(Br)cc3[C@@H]2N2C(=O)c3cc(F)c(F)cc3NC(=O)[C@@]12C	-13%
Cn1c(=O)c2sccc2n2c(CCC(=O)Nc3ccc(F)cc3)nnc12	3%
CC(C)(C)OC(=O)N1CCC(c2c(C(=O)N3CCN(C(=O)c4ccco4)CC3)cnn2-c2cccc(F)c2)CC1	7%
CCc1ccc(NCc2cc3cc(OC)c(OC)cc3n(CC(=O)Nc3cc(C)ccc3C)c2=O)cc1	11%
CCOC(=O)CN1C(=O)N[C@@H](c2ccccc2)C(C(=O)OC)=C1C	7%&-6%
C=C(C)c1ccccc1NC(=O)CCN1C(=O)c2ccccc2S1(=O)=O	-7%
CCN1c2ccccc2-c2nc(SCC(=O)Nc3cc(OC)cc(OC)c3)ncc2S1(=O)=O	-2%
Cc1cc(C(=O)Nc2ccc(OCc3ccccc3)cc2)c(C)o1	-4%
CCOC(=O)c1ccc(NC(=S)Nc2cc(C)cc(C)n2)cc1	-18%
CC1CCN(c2cc3c(cc2F)c(=O)c(S(=O)(=O)c2cccc(Cl)c2)cn3Cc2ccccc2)CC1	9%
Clc1ccc(C2Nc3ccccc3-n3cccc32)cc1 (centres undefined)	-12%
O=C(COC(=O)CCC(=O)c1ccccc1)NNC(=O)c1ccc(Cl)cc1	-12%
COc1ccc(NC(=S)NCCCN2CCCC2)cc1	-2%
CCN(CC)C(=O)CSc1nc2c(c(=O)n(C)c(=O)n2C)n1Cc1ccccc1	-14%
CN(C(=O)Cn1cnc([N+](=O)[O-])n1)C1CCCCC1	-3%
COc1ccc(CNC(=O)C(=O)NCC(c2cccnc2)N2CCN(c3ccccc3)CC2)cc1 (centres undefined)	-5%
CCN(CC(=O)Nc1ccc(OC)cc1)C(=O)CSCC(=O)Nc1ccc(C)cc1	11%
Cc1c(NC(=O)c2cc(-c3ccccc3O)on2)c(=O)n(-c2ccccc2)n1C	6%&-20%
CCOC(=O)Cn1c2c(c(=N)c3c1CCC3)CCC2	4%
COc1ccccc1Nc1nc(N)nc(CSCCO)n1	-6%
COc1ccc(NC(=O)N2CCC(n3cnc4ccccc43)CC2)cc1	-9%
CC(=O)c1ccc(OCCCC(=O)Nc2cccc(S(=O)(=O)N3CCOCC3)c2)cc1	-4%
COc1ccc(CCNc2cn[nH]c(=O)c2Cl)cc1OC	-2%
COc1cc(C(=O)OCC(=O)N(CC(C)C)C2CCS(=O)(=O)C2)ccc1OCC(C)C (centres undefined)	6%
O=C(CSCc1ccc(F)cc1)NC1CCCC1	2%
O=C(NCCCN1CCCCCC1)[C@@H](c1ccccc1)C1CCCCC1	-9%
COc1cccc(C2=NOC(C(=O)Nc3cccc(C(C)=O)c3)C2)c1 (centres undefined)	-1%
COc1cccc(N(C(=O)c2snc(C(N)=O)c2N)C(C(=O)NCC2CCCO2)c2ccc(F)cc2)c1 (centres undefined)	5%
N=C1S/C(=C\c2ccccc2)C(=O)N1c1ccc(F)cc1	-6%
Cn1c(=NC(=O)c2ccc3c(c2)OCCO3)sc2cc(S(C)(=O)=O)ccc21	5%&8%
CN(C)C(=O)c1ccc(-c2ccc3ncnc(N(C)Cc4ccco4)c3c2)cc1	?
COC(=O)C1=C(C)N(C)C(=S)NC1c1cc(OC)ccc1OC (centres undefined)	-20%
COc1ccc(CCN(C)C(=O)CNC(=O)c2ccc3c(c2)OCO3)cc1OC	-6%
CCc1ccc(NC(=O)CSc2ccnc(=O)[nH]2)cc1	7%
O=C(CCCSc1nc2ccccc2[nH]1)NC1CCCCC1	-3%
O=C1CS/C(=N/N=C/c2ccco2)N1Cc1ccc(F)cc1	-1%
O=C(Cc1cccs1)Nc1nnc(-c2ccc(F)cc2)s1	-13%
CCC1CCC(N2CCN(c3ccccc3F)CC2)CC1 (centres undefined)	10%
CCN(CC)CCCNC(=O)CCC(=O)Nc1ccc2nc(N3CCCCC3)cc(C)c2c1	9%
CCS(=O)(=O)c1nc2ccccc2n1Cc1ccccc1Cl	-11%
CCOc1ccc(-c2csc(/C(C#N)=C/c3ccc(Br)cc3)n2)cc1	-23%
Cc1ccc(-n2c(CNc3ccc(C)c(Cl)c3)n[nH]c2=S)cc1	-9%

For convenience, some entries already given:
SMILES	VDR inh
O=C(CSCc1ccc(F)cc1)NC1CCCC1	2%
O=C(NCCCN1CCCCCC1)[C@@H](c1ccccc1)C1CCCCC1	-9%
COc1cccc(C2=NOC(C(=O)Nc3cccc(C(C)=O)c3)C2)c1 (centres undefined)	-1%
COc1cccc(N(C(=O)c2snc(C(N)=O)c2N)C(C(=O)NCC2CCCO2)c2ccc(F)cc2)c1 (centres undefined)	5%
N=C1S/C(=C\c2ccccc2)C(=O)N1c1ccc(F)cc1	-6%
Cn1c(=NC(=O)c2ccc3c(c2)OCCO3)sc2cc(S(C)(=O)=O)ccc21	5%&8%
CN(C)C(=O)c1ccc(-c2ccc3ncnc(N(C)Cc4ccco4)c3c2)cc1	?
COC(=O)C1=C(C)N(C)C(=S)NC1c1cc(OC)ccc1OC (centres undefined)	-20%
COc1ccc(CCN(C)C(=O)CNC(=O)c2ccc3c(c2)OCO3)cc1OC	-6%
CCc1ccc(NC(=O)CSc2ccnc(=O)[nH]2)cc1	7%
O=C(CCCSc1nc2ccccc2[nH]1)NC1CCCCC1	-3%
O=C1CS/C(=N/N=C/c2ccco2)N1Cc1ccc(F)cc1	-1%
O=C(Cc1cccs1)Nc1nnc(-c2ccc(F)cc2)s1	-13%
CCC1CCC(N2CCN(c3ccccc3F)CC2)CC1 (centres undefined)	10%
CCN(CC)CCCNC(=O)CCC(=O)Nc1ccc2nc(N3CCCCC3)cc(C)c2c1	9%

More entries:
SMILES	VDR inh
CN=C1S/C(=C/c2cn(CC(=O)OC)c3ccccc23)C(=O)N1C	1%
CCCCN(C)CCNC(=O)Cn1c(=O)sc2ccccc21	0%
COc1cccc(/C=N/NC(=O)CCCc2ccc(OC)c(C)c2)c1	-22%
CCC(C)NC(=O)c1sc2nc(C)c(C(=O)Nc3ccc(C)cc3C)c(-c3ccc(Br)cc3)c2c1N (centres undefined)	-10%
CCOC(=O)N/N=C/c1cn(CCCOc2ccc(C)cc2)c2ccccc12	-3%
O=C(N/N=C/c1ccc(F)cc1)c1cccc(NC(=O)c2ccc(F)cc2)c1	-4%
O=C(NCC1CCCO1)C1CCN(S(=O)(=O)Cc2ccccc2)CC1 (centres undefined)	5%
COc1cccc(-c2nc(-c3ccccc3)no2)c1	4%
Cc1ccc(CNCc2c(C(=O)O)n(Cc3ccc(C)cc3)c3cc(C)ccc23)cc1	6%
O=C(NC1CCCCC1)N(Cc1ccc(F)cc1)Cc1nc2ccccc2c(=O)[nH]1	-2%
COc1ccc2cc(S(=O)(=O)N3CCN(C)CC3)ccc2c1	-3%
O=C(Nc1ccc(N2CCOCC2)c(S(=O)(=O)Nc2ccccc2Cl)c1)c1ccccc1	15%
CCOC(=O)c1c(C)n(C)c2ccc(OC)c(NC(=O)CN3CCC4(CC3)OCCO4)c12	-4%
CCn1nnnc1NCc1cccc(Cl)c1	7%
COc1cccc(CN2CCNC(=O)C2CC(=O)NCCCn2ccnc2)c1 (centres undefined)	-10%
CCc1c(C)sc2c1CCN(C(=O)Nc1ccc(F)c(Cl)c1)C2c1ccc(F)cc1 (centres undefined)	4%
COc1cccc(C(=O)Nc2ccc(-n3nncc3C(C)(C)C)cc2)c1	-29%
O=C1NC2c3c(I)sc(I)c3C(=O)C2O1 (centres undefined)	-20%
COc1ccc(C(=O)NCc2ccc(Cl)cc2)cc1S(=O)(=O)N1CCCC1	15%
Fc1cc(F)cc(NC(=S)NCCCN2CCOCC2)c1	-26%
Cc1cc(NS(=O)(=O)c2ccc(NC(=O)Cc3ccccc3)cc2)nc(C)n1	-8%
Cc1ccccc1NC(=O)Nc1ccccc1N1CCCCC1	-16%
CCOC(=O)Cc1nn(Cc2nc(-c3ccc(C)cc3)cs2)c(=O)c2ccccc12	-14%
COc1cc(NC(=O)CCS(=O)(=O)c2nc(-c3ccc4c(c3)OCO4)cc(C(F)(F)F)n2)cc(OC)c1OC	?
NC(=O)c1cc[n+](CC(=O)c2ccc(NC(=O)c3ccccc3)cc2)cc1	?
CN1C(=O)C(O)(c2nnc(-c3ccccc3)o2)c2ccccc21 (centres undefined)	-1%
CC(C)CNC(=S)NNC(=O)c1csc2c1CCC(C)C2 (centres undefined)	-3%
COC(=O)[C@]1(S(=O)(=O)c2ccccc2)C[C@@H]2ON=C(c3ccc(OC)cc3)[C@@H]2C1	-1%
CC(C)CC(NC(=O)c1ccco1)C(=O)Nc1ccc2c(c1)OCCO2 (centres undefined)	-30%
Cc1cc(C)cc(SCc2noc(C(=O)NC(C)C)c2C(=O)O)c1	-5%
CC(C)(C)C(=O)Nc1nnc(CSCc2ccccc2F)s1	-1%
COc1ccc(C)cc1NC(=O)c1cc(S(=O)(=O)NCCC2=CCCCC2)ccc1F	15%
COc1ccc(CCNc2c3ccccc3nc3ccccc23)cc1OC	15%

Assay outcomes from PubChem.
